Compound activity from PubChem BioAssay.
Shh pathway inh: blocks Sonic Hedgehog signaling | Shh-LIGHT2 Gli-luciferase reporter, 30 h | inhibition, % (no concentration beside the values) | 2.1% of 22,000 active;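 active means replicate mean of 65% or more; inconclusive means mean lower but half the replicates past it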;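 further: pathway switched on by Shh-conditioned medium diluted 1 in 25 in low serum; 100 nL library stock added to about 40 µL; 0% = median of neutral wells and 100% = positive control level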
PD-1 reverse act: activators reversing PD-1 mediated T-cell inhibition; primary human CD4 T cells, PD-L1 beads, CellTiter-Glo 96 h; 29,000 tested, under 10 active; activation, % (no concentration beside the values);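 active means replicate mean of 50% or more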;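 further: 0% = median vehicle wells and 100% = positive control; 100 nL library stock added to about 50 µL; numbers are from one replicate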
MITF inh: blocks MITF activity; 0.28% of 37,000 active; inhibition, % (concentration not given with the values); TRPM1 promoter luciferase, luminescence, 24 h;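 active means most replicates at 85% or more, or half of them and the mean; inconclusive means half reach 85% but not the mean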;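 further: human melanocyte line stably carrying TRPM1 promoter luciferase reporter; 0% = vehicle wells and 100% = a positive control; the first replicate is given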
YB-1 expression: YB-1 expression inhibition. U2OS, qRT-PCR YB-1 vs CDIP delta delta Cp, 16 h; stronger effect = higher value; zero = DMSO, each unit about twofold. delta delta Cp (YB-1 minus CDIP) (test concentration not listed). 0.37% of 30,000 active. AID 434959;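 active means delta delta Cp rounded down to an integer at or above 3, about 3 SD of DMSO wells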;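 further: higher means less YB-1 transcript or more CDIP transcript relative to DMSO; stock transfer was 100 nL into about 100 µL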
* marks the source's active call; other numbers are inactive results; ? = inconclusive; · = not tested or not shown.

| SMILES | PD-1 reverse act | Shh pathway inh | MITF inh | YB-1 expression |
| --- | --- | --- | --- | --- |
| C[C@@H]1CN([C@H](C)CO)C(=O)c2cccc(NC(=O)Nc3ccc4c(c3)OCO4)c2O[C@H]1CN(C)CC1CC1 | · | -35.0 | -15.2 | -0.126 |
| CC1(C)Cc2nc3sc4c(SCC(=O)Nc5ccc(Cl)cc5)ncnc4c3cc2CO1 | -1.0 | · | -30.2 | · |
| COc1ccc(CN(C)C[C@H]2Oc3c(NC(=O)Nc4ccc5c(c4)OCO5)cccc3C(=O)N([C@@H](C)CO)C[C@@H]2C)cc1 | -1.0 | -19.6 | -26.1 | -0.997 |
| C[C@@H]1CN([C@@H](C)CO)C(=O)c2cccc(NC(=O)C3CCCCC3)c2O[C@H]1CN(C)C(=O)Nc1cccc2ccccc12 | · | ? | -2.0 | -0.0715 |
| C[C@@H]1CCCCO[C@@H](CN(C)S(=O)(=O)c2ccc(Cl)cc2)[C@@H](C)CN([C@H](C)CO)C(=O)c2cc(NC(=O)Nc3cccc4ccccc34)ccc2O1 | -0.2 | 13.3 | 9.7 | -0.234 |
| C[C@H](CO)N1C[C@H](C)[C@H](CN(C)Cc2ccncc2)Oc2ccc(NC(=O)Nc3cccc4ccccc34)cc2CC1=O | · | 43.7 | 10.3 | -0.114 |
| C[C@H](CO)N1C[C@H](C)[C@H](CN(C)Cc2ccc(C(=O)O)cc2)Oc2ccc(NS(=O)(=O)c3cccs3)cc2C1=O | 1.0 | · | -3.3 | 0.215 |
| Cc1cc(NC(=O)CN(c2cccc(F)c2)S(C)(=O)=O)ccc1Br | 0.4 | · | -0.8 | · |
| C[C@H](CO)N1C[C@H](C)[C@@H](CN(C)Cc2ccncc2)Oc2c(NS(=O)(=O)c3cccs3)cccc2C1=O | 0.6 | 8.6 | -12.4 | -0.42 |
| C[C@@H]1CCCCO[C@@H](CN(C)Cc2ccc(C(F)(F)F)cc2)[C@@H](C)CN([C@H](C)CO)C(=O)c2cc(N(C)C)ccc2O1 | · | -26.9 | 6.5 | -0.157 |
| CNC[C@H]1Oc2ccc(NC(=O)Cc3ccccc3)cc2CC(=O)N([C@H](C)CO)C[C@H]1C | 1.2 | -17.1 | -5.8 | -0.322 |
| CC(C)=CCCC(C)(O)C1Cc2cc(C(=O)O)cc(CC=C(C)C)c2O1 (configuration not stated) | · | -20.2 | · | -0.433 |
| CC(C)NC(=O)N(C)C[C@@H]1Oc2ccc(NS(=O)(=O)c3cccs3)cc2C(=O)N([C@H](C)CO)C[C@@H]1C | · | · | -0.8 | 0.143 |
| C[C@@H]1CN([C@@H](C)CO)C(=O)c2cccc(N(C)C)c2O[C@@H]1CN(C)C(=O)Nc1ccccc1 | 0.1 | -91.3 | -3.0 | -0.46 |
| C[C@@H]1CCCCO[C@@H](CN(C)CC2CCCCC2)[C@@H](C)CN([C@H](C)CO)C(=O)c2cc(NS(=O)(=O)c3ccc(F)cc3)ccc2O1 | -2.7 | -11.6 | -4.5 | -0.104 |
| C[C@@H]1CN([C@H](C)CO)C(=O)c2cc(NS(=O)(=O)c3cn(C)cn3)ccc2O[C@H]1CN(C)C(=O)NC1CCCCC1 | 1.1 | -41.6 | -9.6 | -0.135 |
| CCN(CC(=O)Nc1ccc(Br)cc1F)S(=O)(=O)c1ccc(Cl)cc1 | 2.9 | · | 1.9 | · |
| C[C@H]1CN([C@@H](C)CO)C(=O)c2cccc(NC(=O)c3nc4ccccc4s3)c2O[C@@H]1CN(C)Cc1ccccc1 | -4.2 | -4.2 | 44.9 | 0.236 |
| O=C1c2c(O)cc(O)cc2O[C@H](c2ccccc2)[C@H]1O | 1.5 | -23.9 | -6.3 | 0.0301 |
| CCOc1cc(S(=O)(=O)NCc2ccccn2)ccc1Cl | 1.5 | · | -5.9 | · |
| C[C@H](CO)N1C[C@H](C)[C@H](CN(C)Cc2ccc(Oc3ccccc3)cc2)Oc2c(NS(=O)(=O)c3ccc(F)cc3)cccc2C1=O | -3.9 | 12.2 | 36.8 | 0.02 |
| COc1ccc(C(=O)N(Cc2nc(-c3ccccc3)no2)C(C)C)cc1[N+](=O)[O-] | -0.3 | · | -24.8 | · |
| CCc1cc2c(NCC3CCCO3)ncnc2s1 (configuration not stated) | 1.5 | · | 23.6 | · |
| C[C@H](CO)N1C[C@H](C)[C@H](CN(C)S(=O)(=O)c2cn(C)cn2)Oc2ccc(NS(=O)(=O)c3ccccc3)cc2CC1=O | 2.5 | ? | -6.7 | 0.108 |
| Cc1cccc(OCC(=O)Nc2ccc(Cl)c(-c3nc4ccccc4s3)c2)c1 | 1.8 | · | -13.7 | · |

Continued:
| SMILES | PD-1 reverse act | Shh pathway inh | MITF inh | YB-1 expression |
| --- | --- | --- | --- | --- |
| C[C@@H]1CN([C@H](C)CO)C(=O)c2cccc(NC(=O)c3ccc(-c4nccs4)cc3)c2O[C@H]1CN(C)C(=O)Nc1ccc2c(c1)OCO2 | 0.7 | -9.5 | -5.5 | 0.288 |
| CN(C)CCC(c1ccccc1)c1ccccn1 (configuration not stated) | 3.8 | 0.0 | 12.5 | -0.0572 |
| C[C@H]1CN([C@@H](C)CO)C(=O)c2cc(NC(=O)Cc3ccccc3)ccc2O[C@H]1CN(C)CC1CC1 | 1.4 | -19.1 | -11.9 | -0.125 |
| O/N=C/c1c(F)cccc1F | 1.8 | -20.4 | -19.5 | 0.301 |
| Cc1nc(SCC(=O)c2cc3ccccc3oc2=O)c(C(N)=O)c(C)c1C | -2.8 | · | -19.8 | · |
| COc1ccc(NC(=O)Nc2ccc3c(c2)C(=O)N([C@@H](C)CO)C[C@H](C)[C@H](CN(C)S(=O)(=O)c2ccccc2)O3)cc1 | -0.4 | -49.4 | -17.7 | 0.375 |
| CC1(C)CC(=O)C(C=NC(CO)(CO)CO)=C(O)C1 | 0.7 | -6.5 | 1.8 | 0.532 |
| COC1OC(OC)C(O)(CC[C@@]2(O)[C@H](C)C[C@@H](O)C3[C@@](C)(CO)CCC[C@]32C)C1O (some centres not stated) | -0.1 | 5.2 | -37.5 | 0.246 |
| COc1ccc(-c2oc3c(OC)c(OC)c(OC)c(O)c3c(=O)c2OC)cc1OC | -4.2 | 24.0 | -21.0 | -0.347 |
| C[C@@H]1CN([C@H](C)CO)C(=O)c2cc(NC(=O)Nc3ccc(F)cc3)ccc2O[C@@H]1CN(C)S(=O)(=O)c1cccs1 | 0.1 | -10.2 | -9.9 | 0.0618 |
| Cc1noc(C)c1NC(=O)N(C)C[C@@H]1Oc2ccc(NC(=O)Nc3ccccc3)cc2CC(=O)N([C@H](C)CO)C[C@@H]1C | 0.3 | -18.6 | -4.2 | 0.18 |
| Cc1c(Cl)cccc1NC(=O)CN(c1cccc(F)c1)S(C)(=O)=O | -0.4 | · | 9.5 | · |
| CC1(C)CC[C@@]2(C(=O)O[C@@H]3O[C@H](CO)[C@@H](O)[C@H](O)[C@H]3O)C(C1)C1=CCC3[C@@]4(C)CC[C@@H](O[C@@H]5O[C@H](CO)[C@@H](O)[C@H](O)[C@H]5O[C@@H]5O[C@H](CO)[C@@H](O)[C@H](O)[C@H]5O)C(C)(C)C4CC[C@@]3(C)[C@]1(C)C[C@H]2O (some centres not stated) | 1.8 | -38.8 | -4.5 | 0.152 |
| Cc1cccc(NC(c2ccccc2C)c2ccc3ccc(C)nc3c2O)n1 (configuration not stated) | -13.0 | · | 60.4 | · |
| CCn1c(-c2ccccc2)n[nH]c1=S | -0.4 | -19.5 | -1.2 | -0.0398 |
| COc1cccc(N(CC(=O)Nc2cc(C(F)(F)F)ccc2Cl)S(C)(=O)=O)c1 | 0.3 | · | -6.6 | · |
| C[C@H]1CN([C@@H](C)CO)C(=O)c2cccc(NS(=O)(=O)c3cn(C)cn3)c2O[C@H]1CN(C)S(=O)(=O)c1ccc(F)cc1 | 0.5 | -18.6 | -3.6 | -0.644 |
| CCC(=O)c1ccc2c(c1)N(CC(C)N(C)C)c1ccccc1S2 (configuration not stated) | · | 53.2 | -3.7 | -0.44 |
| COc1ccc(NC(=O)N(C)C[C@H]2Oc3ccc(NC(=O)Nc4cccc5ccccc45)cc3C(=O)N([C@H](C)CO)C[C@@H]2C)cc1 | 0.1 | -45.2 | 2.5 | 0.565 |
| COc1cc(C2c3c(cc(OC)c(O)c3OC)CC(CO)C2COC2OCC(O)C(O)C2O)cc(OC)c1O (configuration not stated) | 1.9 | -6.7 | 13.8 | -0.866 |
| Cc1ccc(S(=O)(=O)N(C)C[C@H]2Oc3c(NS(=O)(=O)c4ccccc4)cccc3C(=O)N([C@@H](C)CO)C[C@H]2C)cc1 | -0.9 | 44.4 | 5.8 | 0.237 |
| C[C@@H]1CN([C@H](C)CO)C(=O)c2cc(NC(=O)Cn3cnnn3)ccc2O[C@H]1CN(C)Cc1ccccc1 | 1.7 | 8.4 | 4.1 | -0.179 |
| C[C@H]1CN([C@@H](C)CO)C(=O)Cc2cc(NC(=O)Cn3cnnn3)ccc2O[C@@H]1CN(C)S(C)(=O)=O | 1.3 | -24.3 | -1.2 | -0.19 |
| C[C@H](CO)N1C[C@H](C)[C@H](CN(C)Cc2ccc(C(=O)Nc3ccccc3N)cc2)Oc2ccc(NS(=O)(=O)c3ccc(F)cc3)cc2C1=O | -1.7 | · | 23.2 | 0.0117 |
| C[C@@H]1CN([C@@H](C)CO)C(=O)Cc2cc(NC(=O)NC3CCCCC3)ccc2O[C@@H]1CN(C)Cc1ccc(C(F)(F)F)cc1 | -2.5 | 21.6 | 3.5 | 0.168 |

Whole records, looked up by structure. Order of values: PD-1 reverse act | Shh pathway inh | MITF inh | YB-1 expression
Results for `C[C@H]1CN([C@@H](C)CO)C(=O)Cc2cc(NC(=O)Cn3cnnn3)ccc2O[C@@H]1CN(C)S(C)(=O)=O` → 1.3 | -24.3 | -1.2 | -0.19
Results for `Cc1noc(C)c1NC(=O)N(C)C[C@@H]1Oc2ccc(NC(=O)Nc3ccccc3)cc2CC(=O)N([C@H](C)CO)C[C@@H]1C` → 0.3 | -18.6 | -4.2 | 0.18
Results for `Cc1ccc(S(=O)(=O)N(C)C[C@H]2Oc3c(NS(=O)(=O)c4ccccc4)cccc3C(=O)N([C@@H](C)CO)C[C@H]2C)cc1` → -0.9 | 44.4 | 5.8 | 0.237

New compounds follow:
| SMILES | PD-1 reverse act | Shh pathway inh | MITF inh | YB-1 expression |
| --- | --- | --- | --- | --- |
| CCN(CC(=O)Nc1ccccc1)S(=O)(=O)c1ccc(Cl)cc1 | -1.4 | · | -7.9 | · |
| COc1ccc(NC(=O)Nc2ccc3c(c2)CC(=O)N([C@H](C)CO)C[C@H](C)[C@H](CN(C)C(=O)Nc2ccc(F)cc2)O3)cc1 | 0.9 | -25.4 | -15.4 | -0.187 |
| C[C@H]1CN([C@@H](C)CO)C(=O)c2cc(NC(=O)C3CCCCC3)ccc2O[C@@H]1CN(C)S(=O)(=O)c1ccc(Cl)cc1 | 0.0 | 7.6 | -0.4 | 0.0931 |
| C[C@H](CO)N1C[C@H](C)[C@H](CN(C)S(C)(=O)=O)Oc2c(NC(=O)NC3CCCCC3)cccc2C1=O | · | -21.5 | 6.9 | 0.681 |
| CCOC(=O)c1nc2ccccc2c(=O)n1/N=C/c1cc(Cl)cc(Cl)c1O | 0.4 | -12.0 | 7.7 | -0.164 |
| C=C1C(O)CC2C(C(=O)OC)=CO[C@@H](O[C@@H]3O[C@H](CO)[C@@H](O)[C@H](O)[C@H]3O)C12 (some centres not stated) | 2.0 | -15.3 | 1.9 | -0.245 |
| COc1ccc(CN(C)C[C@H]2Oc3ccc(NS(C)(=O)=O)cc3C(=O)N([C@@H](C)CO)C[C@H]2C)cc1 | 2.1 | -9.4 | 3.9 | 0.297 |
| C[C@@H]1CCCCO[C@H](CN(C)C(=O)Cc2ccccc2)[C@@H](C)CN([C@H](C)CO)C(=O)c2cc(N(C)C)ccc2O1 | 0.2 | -17.0 | 2.0 | -0.199 |
| CCOC(=O)c1ccc(S(=O)(=O)N(C)C)cc1 | 0.1 | -7.3 | 17.0 | -0.0881 |
| C[C@H]1CN([C@@H](C)CO)C(=O)Cc2cc(NC(=O)Nc3ccccc3)ccc2O[C@H]1CN(C)Cc1ccc(Oc2ccccc2)cc1 | 1.8 | -11.4 | -4.4 | -0.25 |
| Cc1ccc(S(=O)(=O)N(C)C[C@H]2Oc3c(NC(=O)C4CCOCC4)cccc3C(=O)N([C@@H](C)CO)C[C@H]2C)cc1 | · | -10.5 | -6.2 | 0.0142 |
| C[C@@H]1CN([C@@H](C)CO)C(=O)c2cccc(NC(=O)c3ccc(-c4nccs4)cc3)c2O[C@H]1CN(C)Cc1ccccc1 | -4.6 | 0.7 | 64.3 | -0.233 |
| O=C(NCc1cccnc1)C1CC(=O)N(c2ccc(Cl)cc2)C1 (configuration not stated) | 2.4 | · | 4.0 | · |
| C[C@H](CO)N1C[C@H](C)[C@H](CN(C)Cc2ccncc2)Oc2ccc(NC(=O)Nc3ccccc3)cc2C1=O | 0.4 | -18.5 | 4.5 | 0.0627 |
| CC(C)NC(=O)Nc1cccc2c1O[C@H](CN(C)C(=O)NC1CCCCC1)[C@H](C)CN([C@@H](C)CO)C2=O | · | -30.5 | -14.9 | -0.115 |
| O=C(O)C1C2C=CC(C2)C1C(=O)Nc1cccc([N+](=O)[O-])c1 (configuration not stated) | 2.1 | · | -0.4 | · |
| Cc1ccc(S(=O)(=O)Nc2cccc3c2O[C@H](CN(C)S(=O)(=O)c2ccc(F)cc2)[C@@H](C)CN([C@H](C)CO)C3=O)cc1 | · | 21.4 | 1.3 | 0.796 |

This is a subset; the hit share may differ from the screen's.
